ugtP null kill: kills S. aureus RN4220 lacking UgtP | S. aureus RN4220 ugtP deletion, OD600 growth, 16 h; some inactives read as strong as hits | growth inhibition, % (test concentration not listed) | hit rate 0.54% among 330,000 | AID 1259309;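 active means z-score under -3 and OD600 up to 0.15 on both plates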;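 further: plate controls were untreated wells for no effect and antibiotic for full effect; wells of about 80 µL received 100 nL stock; the first replicate is given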
Bead autofluor: counter-screen for toxin protease inhibitors: compound fluorescence; fluorescence intensity (concentration not given with the values); compound autofluorescence counterscreen, microsphere flow cytometry; stronger effect = higher value; hit rate 3.1% among 360,000; AID 624483;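 active means at least 3 SD above the mean of all compounds, about 16000 in these data; inconclusive means too few beads counted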;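 further: 100 nL of 1 mM stock went into each well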
PrP 5UTR inh: inhibition of PrP 5' UTR reporter expression | hit rate 0.35% among 340,000 | AID 488862 | inhibition, % (concentration not given with the values) | cell-based PrP 5' UTR mRNA reporter, plate reader;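 active means every replicate at 50% or more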;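 further: 0 = median of the neutral control wells; tested in H4 reporter cells; numbers are from one replicate; inactives centre near -14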
Sa RN4220 lethal: kills Staphylococcus aureus RN4220 | AID 1259311 | hit rate 0.33% among 330,000 | S. aureus RN4220 growth, OD600, 16 h | inhibition, % (concentration not given with the values);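 active means z-score of -3 or lower and OD600 up to 0.18 on both plates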;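 further: plate controls were untreated cells for no effect and reference antibiotic for full effect; stock transfer was 100 nL into about 80 µL; one replicate is shown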
BJeLR viability: BJeLR cell viability loss | inhibition, % (no concentration beside the values) | hit rate 0.17% among 300,000 | BJeLR (HRASV12) viability, CellTiter-Glo ATP luminescence, 48 h; reference of the scale not given here;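 active means replicate mean above 50%; inconclusive means above 50% but judged a plate artefact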;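 further: 50 nL library stock added to about 25 µL; numbers are from one replicate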
Mtb hypoxia rep: inhibitors of hypoxia-regulated fluorescent reporter in Mycobacterium tuberculosis; AID 1159583; M. tuberculosis hypoxia-regulated fluorescent reporter, fluorescence; fluorescence inhibition, % (test concentration not listed); hit rate 0.1% among 300,000;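 active means 35 to 45% if threefold the growth effect, above 45% if 1.5-fold the growth effect; inactive means the rest, general growth blockers included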;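 further: wells of about 50 µL received 100 nL stock; 0% = vehicle wells and 100% = reference inhibitor wells; whole bacteria with a GFP reporter of the hypoxia response; strong numbers were not always called active; many hits fall short of the cut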
Mtb hypoxia rep growth: also measured in Mtb hypoxia rep; calls as there; growth inhibition, %; measured here: M. tuberculosis growth (absorbance);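 0% = vehicle and 100% = reference antibiotic; read after six days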
* marks the source's active call; other numbers are inactive results; ? = inconclusive; · = no result given. Compounds as they come; about 3.9% have a hit in one of these screens.

SMILES	ugtP null kill	Bead autofluor	PrP 5UTR inh	Sa RN4220 lethal	BJeLR viability	Mtb hypoxia rep	Mtb hypoxia rep growth
Cc1ccc2nc(NCC(=O)O)nc(-c3ccccc3)c2c1	-6	2797	1	-9.5	6	4	10
CCn1c(SCC(=O)c2ccccc2)nnc1-c1cnccn1	6	·	-57	8.6	2	-5	5
O=C(CSc1n[nH]c(-c2ccccn2)n1)Nc1ccc(F)cc1	-10	3041	12	0.7	6	-1	-2
NS(=O)(=O)c1ccc(NC(=O)CSc2nc(Nc3ccccc3)nc(N3CCOCC3)n2)cc1	-16	5423	-16	1.4	6	-8	-11
O=C(c1cc(COc2ccc(F)cc2F)on1)N1CC[C@@H]2CCCC[C@H]2C1	3	4677	-19	0.5	-4	7	1
COC(C[C@H](O)C[C@@H](O)[C@@H](C)OCc1ccccc1)OC	·	3853	-10	·	5	·	·
Cc1ccccc1CS(=O)(=O)CC(O)CN1CCCC1=O (configuration not stated)	3	3180	-12	1.4	-3	4	-12
Cc1c(CCOC(=O)C23CC4CC(CC(C4)C2)C3)sc[n+]1Cc1ccccc1	71	2675	-2	-7.3	14	-4	-1
Cc1nnc(NC(=O)CN2C(=O)c3ccccc3S2(=O)=O)s1	-15	4977	-21	1.9	0	·	·
Fc1cccc(C=NNc2ccc(Cl)nn2)c1	1	·	·	1.2	·	-2	-7
CC(C)(CCO)Nc1ncnc2onc(-c3ccc(F)cc3)c12	5	3191	-10	1.8	-5	3	-13
COc1ccc(CNC(=O)C2CCCN2CCc2ccccc2)cc1OC (configuration not stated)	6	4681	-12	2.8	7	8	5
COc1cc(Cl)c(C)cc1NC(=O)CSc1ccc(NC(C)=O)cc1	6	2616	-27	-0.2	14	5	-3
Cc1cn(C2CC(OC(=O)C(C)C)C(CO)O2)c(=O)[nH]c1=O (configuration not stated)	2	3884	-2	2.0	·	1	9
COCCCNC(=O)CN(c1cccc(Cl)c1C)S(C)(=O)=O	-7	4462	-1	-3.1	9	-10	2
COC(=O)C(O)(c1ccc(NC(=S)NC(=O)c2ccc(Cl)cc2Cl)c(C)c1)C(F)(F)F (configuration not stated)	31	7120	-11	27	1	3	6
Cc1ccc(NC(=O)NC(=S)NC(=O)c2ccccc2)cc1	-5	10899	-1	4.4	3	10	10
Cc1ccc(SCC(=O)NC(=O)Nc2ccc3c(c2)OCCO3)cc1C	6	2254	-24	1.1	-4	6	7
C[C@H]1[C@H](C)CC[C@]2(C(=O)O)CC[C@]3(C)C(=CC[C@@H]4[C@@]5(C)CC[C@H](O)C(C)(C)[C@@H]5CC[C@]43C)[C@H]12	·	5649	-9	·	5	·	·
COc1cc(-c2noc(C)c2C#Cc2nccn2C)cc(OC)c1OC	10	2891	-4	10	-2	6	4
N#CC1(NC(=O)Cn2cc(C(F)(F)F)ccc2=O)CCCC1	4	4116	-10	1.8	·	8	9
N#C/C(=C/C1=C(N2CCOCC2)C(=C/c2ccccc2)/CC1)C(=O)Nc1ccccc1F	-7	4859	0	6.7	·	11	8
CCOC(=O)Cn1c(=NC(=O)c2ccc([N+](=O)[O-])s2)sc2ccccc21	17	2362	-22	14	9	·	·
COc1ccc(CC(=O)Nc2ccc3c(C(F)(F)F)cc(=O)oc3c2)cc1OC	5	2472	-21	7.1	4	3	14
O=C1CC(C(=O)N(CC2CCCO2)C(C(=O)NC2CCCCC2)c2ccncc2)CS1 (configuration not stated)	0	9682	-7	1.1	7	0	5

Later entries.
SMILES	ugtP null kill	Bead autofluor	PrP 5UTR inh	Sa RN4220 lethal	BJeLR viability	Mtb hypoxia rep	Mtb hypoxia rep growth
CCNC(=O)CCc1nc(-c2ccc(C)cc2)no1	1	3662	-15	1.2	1	0	7
O=C(/C=C/c1ccc2c(c1)OCO2)NC1CCCC1	11	3859	8	5.1	0	8	14
CCCCc1ccc(N=N/C(C(=O)Nc2cc(OC)c(NC(C)=O)cc2OC)=C(/C)O)cc1	-4	2319	-34	7.0	4	8	8
O=C(O)c1ccc(S(=O)(=O)c2ccc3c(c2)C(=O)N(NC(=O)c2ccc(O)cc2)C3=O)cc1	2	4261	-18	0.5	-6	4	-1
O=C(NC1CCCCC1)C(c1ccncc1)N(CC1CCCO1)C(=O)C(F)(F)F (configuration not stated)	1	9545	6	4.0	6	10	14
O=P(CCc1ccccc1)(c1ccccc1)c1ccccc1	-2	4766	-18	3.0	·	7	5
CCN(C(=O)c1nn(-c2ccc(OC)cc2)c(=O)c2c1c1ccccc1n2C)c1ccc(OC)cc1	6	2098	-15	-1.1	6	-1	1
CC(C)CC(NC(=O)c1nc[nH]c1C(=O)NC1CCNCC1)C(=O)OCc1ccccc1 (configuration not stated)	-3	·	·	0.7	·	6	10
Cc1ccc(NC(=S)c2ccc(N(C)C)cc2)cc1	8	2177	-83	3.0	-1	8	0
O=S(=O)(NCc1ccncc1)c1ccc(S(=O)(=O)NCC2CCCO2)cc1 (configuration not stated)	1	14234	-13	2.9	0	2	3
COC(=O)c1c(N)n(Cc2ccc(OC)cc2)c2nc3ccccc3nc12	-7	2457	-7	-1.1	·	·	·
COc1cc2[nH]c(=O)n(Cc3ccc(C(=O)NC4CCN(Cc5ccccc5)CC4)cc3)c(=O)c2cc1OC	6	3540	-13	4.7	-2	-3	3
CCOC(=O)c1c(C)c(C(=O)Nc2ccccc2)c(C)n1CC	4	9794	-8	1.3	-1	1	-6
CN(C)S(=O)(=O)c1cccc(NC(=O)c2cncc(Br)c2)c1	-4	9655	-18	1.2	-15	7	4
COc1ccc(CN=Cc2c(C(F)(F)F)[nH][nH]c2=O)cc1	-1	4737	-6	2.8	-9	·	·
O=C(/C=C/C(=O)NCc1cccs1)NCc1cccs1	7	5993	-19	1.6	2	10	1
Cc1ccc(Nc2nc(N)nc(CN3CCN(c4ccccc4)CC3)n2)cc1Cl	-16	21461*	-4	-8.1	2	-4	2
Cc1cc(C(=O)NNC(=O)c2ccccc2F)c2ccccc2n1	1	3318	-6	-1.3	·	-3	-2
O=C(CCN1C(=O)c2ccccc2S1(=O)=O)Nc1cc(Cl)ccc1Cl	-2	?	-25	-0.2	13	-1	0
Cc1nn(-c2ccccc2)c(C)c1C=NNC(=O)c1cc(-c2cccc3ccccc23)n[nH]1	-10	·	·	-3.8	·	5	13
CC(NC(=O)Cn1cnc([N+](=O)[O-])n1)c1ccccc1 (configuration not stated)	6	4334	0	-0.5	1	·	·
CC(=O)c1ccccc1OCC(O)CN1CCN(C(c2ccccc2)c2ccccc2)CC1 (configuration not stated)	16	3510	-10	1.8	5	·	·
CCCCNc1oc(-c2ccc(OC)cc2)nc1S(=O)(=O)c1ccccc1	1	21088*	-12	-0.7	-2	3	11
COc1ccccc1C=NNC(=O)C(NC(=O)c1ccccc1)=C(C)C	6	·	·	3.8	·	-3	1
O=C(Cn1cnc2ccccc21)Nc1ccc(SC(F)F)cc1	-4	3605	-21	-2.2	4	-4	3

(continued)
SMILES	ugtP null kill	Bead autofluor	PrP 5UTR inh	Sa RN4220 lethal	BJeLR viability	Mtb hypoxia rep	Mtb hypoxia rep growth
COc1ccc(-c2nn(-c3ccccc3)cc2C=NNc2ccc(S(N)(=O)=O)cc2[N+](=O)[O-])cc1OC	-1	·	·	4.8	·	12	6
COC(=O)C1=C(C)NC(C)=C(C(=O)OC)C1c1ccc2ccccc2n1	0	3257	-10	5.4	-3	·	·
CCCCN(CC)Cc1ccc(CNC(=O)Nc2ccc(OCC)cc2)o1	0	20423*	-10	7.2	0	18	8
CN(C)c1ccc(/C=N/NC(=O)CNC(=O)/C=C/c2ccccc2)cc1	·	4448	-17	·	-4	·	·
O=C(NCc1ccccn1)c1cc(-c2ccccc2Cl)on1	-1	4434	-45	-3.7	-12	11	11
CCC(C)(C)n1nnnc1C(c1cc2cc3c(cc2[nH]c1=O)OCO3)N1CCN(C)CC1 (configuration not stated)	6	9878	-21	3.9	-7	3	3
Cc1nnc(SCc2nnc(-c3cccs3)o2)n1C1CCCCC1	3	4504	-32	0.8	-16	10	5
O=C(/C=C/c1cccc2ccccc12)N1CCOCC1	1	5705	-62	-0.1	-3	13	3
Cc1sc2nc(CSC(C)C(=O)Nc3ccccn3)[nH]c(=O)c2c1C (configuration not stated)	-2	3549	-21	2.3	·	2	0
CC(C)(CC(=O)O)CC(=O)N1CCN(c2nc3cc(Cl)ccc3s2)CC1	5	3532	-70	-1.4	2	20	10
O=C(Cn1ncc2c3ccccc3n(Cc3cccc(Cl)c3)c2c1=O)N1CCC2(CC1)OCCO2	-6	3541	-27	-14	-6	20	10
CCCCNC(=O)Cc1c(OC)ccc2cc(Br)ccc12	0	2383	-7	5.6	8	-7	3
O=C(Cc1ccc(NC(=O)C2CCN(C(=O)c3ccccc3)CC2)cc1)Nc1cccc(C(=O)N2CCCCC2)c1	1	3470	-15	3.4	·	0	-1
CCN1CCCC1CNC(=O)C(=O)Nc1ccccc1 (configuration not stated)	4	3899	-12	5.3	5	3	6
O=S(=O)(c1ccc2nc(COc3ccccc3)[nH]c2c1)N1CCOCC1	0	4532	-10	0.0	5	1	10
COc1cccc(-c2nnc(-c3ccc(C(F)(F)F)cc3)o2)c1OC	-16	9011	-39	4.2	10	2	9
O=C(Cn1c2ccccc2c(=O)c2ccccc21)NN=Cc1ccc(N2CCCC2)c([N+](=O)[O-])c1	-7	·	·	24	·	6	1
Cc1ccccc1CN1CCN(CC(=O)NCc2ccc3c(c2)OCO3)C1=O	7	7327	·	1.9	2	8	8
O=C(CSc1nc2ccccc2c(=O)n1-c1ccccc1)NN=C/C=C/c1ccccc1[N+](=O)[O-]	2	·	·	7.4	·	0	9
Cn1ncc(Cl)c1C(=O)NC1CCCC1	6	6197	-3	4.4	-16	14	2
CCc1nnc(NC(=O)CSc2nc3ccccc3o2)s1	-3	22539*	-30	2.1	17	0	11
CCC(=O)N=c1sc2ccccc2n1-c1ccccc1	1	4119	-20	1.5	2	2	4
Cc1cccc(C)c1OCC(O)CN1CCCCC1 (configuration not stated)	5	3012	-11	6.8	-11	15	14
O=C1/C(=C/c2ccsc2)N2CCC1CC2	5	3846	-20	4.4	-7	17	-2
O=C(CCC1CC(=O)Nc2ccccc21)NCc1ccc(F)cc1 (configuration not stated)	8	18975*	-11	1.7	-11	13	8

In the list so far, these have two or more sulfur atoms.
SMILES	ugtP null kill	Bead autofluor	PrP 5UTR inh	Sa RN4220 lethal	BJeLR viability	Mtb hypoxia rep	Mtb hypoxia rep growth
NS(=O)(=O)c1ccc(NC(=O)CSc2nc(Nc3ccccc3)nc(N3CCOCC3)n2)cc1	-16	5423	-16	1.4	6	-8	-11
Cc1nnc(NC(=O)CN2C(=O)c3ccccc3S2(=O)=O)s1	-15	4977	-21	1.9	0	·	·
CCOC(=O)Cn1c(=NC(=O)c2ccc([N+](=O)[O-])s2)sc2ccccc21	17	2362	-22	14	9	·	·
O=S(=O)(NCc1ccncc1)c1ccc(S(=O)(=O)NCC2CCCO2)cc1 (configuration not stated)	1	14234	-13	2.9	0	2	3
O=C(/C=C/C(=O)NCc1cccs1)NCc1cccs1	7	5993	-19	1.6	2	10	1
Cc1nnc(SCc2nnc(-c3cccs3)o2)n1C1CCCCC1	3	4504	-32	0.8	-16	10	5
Cc1sc2nc(CSC(C)C(=O)Nc3ccccn3)[nH]c(=O)c2c1C (configuration not stated)	-2	3549	-21	2.3	·	2	0
CCc1nnc(NC(=O)CSc2nc3ccccc3o2)s1	-3	22539*	-30	2.1	17	0	11

As a short view, some entries already given.
SMILES	ugtP null kill	Bead autofluor	PrP 5UTR inh	Sa RN4220 lethal	BJeLR viability	Mtb hypoxia rep	Mtb hypoxia rep growth
COc1ccc(-c2nn(-c3ccccc3)cc2C=NNc2ccc(S(N)(=O)=O)cc2[N+](=O)[O-])cc1OC	-1	·	·	4.8	·	12	6
COC(=O)C1=C(C)NC(C)=C(C(=O)OC)C1c1ccc2ccccc2n1	0	3257	-10	5.4	-3	·	·
